# Source: PubChem
# ugtP null kill – growth inhibition of S. aureus ugtP deletion strain. S. aureus RN4220 ugtP deletion, OD600 growth, 16 h; some inactives read as strong as hits. growth inhibition, % (test concentration not listed). 330,000 tested, 0.54% active. AID 1259309;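 active = z-score under -3 and OD600 up to 0.15 on both plates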;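 note: plate controls were untreated wells for no effect and antibiotic for full effect; wells of about 80 µL received 100 nL stock; the first replicate is given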
# Mtb hypoxia rep – reduces hypoxia-regulated biosensor signal in M. tuberculosis; M. tuberculosis hypoxia-regulated fluorescent reporter, fluorescence; fluorescence inhibition, % (concentration not given with the values); 300,000 tested, 0.1% active;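 active = 35 to 45% if threefold the growth effect, above 45% if 1.5-fold the growth effect; inactive = the rest, general growth blockers included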;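 note: wells of about 50 µL received 100 nL stock; 0% = vehicle wells and 100% = reference inhibitor wells; whole bacteria with a GFP reporter of the hypoxia response; strong numbers were not always called active; many hits fall short of the cut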
# PrP 5UTR inh – inhibition of PrP 5' UTR reporter expression | 340,000 tested, 0.35% active | AID 488862 | inhibition, % (test concentration not listed) | cell-based PrP 5' UTR mRNA reporter, plate reader;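 active = every replicate at 50% or more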;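 note: 0 = median of the neutral control wells; tested in H4 reporter cells; numbers are from one replicate; inactives centre near -14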
# RN4220 kill – kills Staphylococcus aureus RN4220. S. aureus RN4220 growth, OD600, 16 h. inhibition, % (no concentration beside the values). 330,000 tested, 0.33% active. AID 1259311;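 active = z-score of -3 or lower and OD600 up to 0.18 on both plates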;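 note: plate controls were untreated cells for no effect and reference antibiotic for full effect; stock transfer was 100 nL into about 80 µL; one replicate is shown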
# BJeLR lethal – kills HRASV12-expressing BJeLR cells. BJeLR (HRASV12) viability, CellTiter-Glo ATP luminescence, 48 h; reference of the scale not given here. inhibition, % (no concentration beside the values). 300,000 tested, 0.17% active. AID 1554;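 active = replicate mean above 50%; inconclusive = above 50% but judged a plate artefact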;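 note: 50 nL library stock added to about 25 µL; numbers are from one replicate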
# Autofluor counter – compound fluorescence in toxin protease inhibitor counterscreen | fluorescence intensity (test concentration not listed) | 360,000 tested, 3.1% active | compound autofluorescence counterscreen, microsphere flow cytometry; active compounds read high | AID 624483;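 active = at least 3 SD above the mean of all compounds, about 16000 in these data; inconclusive = too few beads counted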;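 note: 100 nL of 1 mM stock went into each well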
# Mtb hypoxia rep growth – further read-out of Mtb hypoxia rep, marked with its call; growth inhibition, %; measured here: M. tuberculosis growth (absorbance);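 0% = vehicle and 100% = reference antibiotic; read after six days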
# The depositor's hits bear a star; ? = inconclusive; · = not tested or not shown.
# A first look:
SMILES,ugtP null kill,Mtb hypoxia rep,Mtb hypoxia rep growth,PrP 5UTR inh,RN4220 kill,BJeLR lethal,Autofluor counter
O=C(OCCOc1cccc(Cl)c1)c1cc(S(=O)(=O)N2CCOCC2)ccc1F,-2,-1,3,-1,4.9,9,?
COCCCNC(=O)C[C@H]1C[C@H](C(=O)N2CCCCC2)[C@@]2(C)c3[nH]c4ccc(Cl)cc4c3CCN2C1=O,-6,-8,4,-8,-0.5,·,3607
COc1ccc([N+](=O)[O-])cc1-c1[nH]c(-c2ccc(C(=O)O)cc2)nc1-c1ccccc1,-1,7,2,-12,-1.5,-4,3172
COc1ccc(CCNC(=O)Cn2cnc3c(cnn3-c3ccccc3Cl)c2=O)cc1OC,-2,1,13,-4,-2.8,-12,21068*

# This part in full, previewed entries included:
SMILES,ugtP null kill,Mtb hypoxia rep,Mtb hypoxia rep growth,PrP 5UTR inh,RN4220 kill,BJeLR lethal,Autofluor counter
O=C(OCCOc1cccc(Cl)c1)c1cc(S(=O)(=O)N2CCOCC2)ccc1F,-2,-1,3,-1,4.9,9,?
COCCCNC(=O)C[C@H]1C[C@H](C(=O)N2CCCCC2)[C@@]2(C)c3[nH]c4ccc(Cl)cc4c3CCN2C1=O,-6,-8,4,-8,-0.5,·,3607
COc1ccc([N+](=O)[O-])cc1-c1[nH]c(-c2ccc(C(=O)O)cc2)nc1-c1ccccc1,-1,7,2,-12,-1.5,-4,3172
COc1ccc(CCNC(=O)Cn2cnc3c(cnn3-c3ccccc3Cl)c2=O)cc1OC,-2,1,13,-4,-2.8,-12,21068*
Cc1ccc(NS(=O)(=O)c2ccc(NC(=O)c3cccc(NC(=O)C(C)C)c3)cc2)cc1,-15,17,13,-30,8.8,3,3527
c1ccc(-c2cc3c(N4CCCC4)ncnc3s2)cc1,-20,9,2,8,11,-2,2103
COc1cc(C=Nn2nnnc2N)ccc1OC(C)C,11,9,1,·,5.7,·,·
COc1ccc(NS(=O)(=O)c2cccc(C(=O)N/N=C(/C)c3ccc(-n4ccnc4)cc3)c2)cc1,7,3,2,-19,3.8,·,3036
CCN=C1SC(CC(=O)NCCc2ccc(OC)cc2)C(=O)N1CC (stereo not drawn),9,13,-1,8,3.9,-26,2917
Nn1cnc2scc(-c3cccs3)c2c1=O,14,5,-1,-11,7.1,-6,3691
O=C(COc1ccc2c(c1)OCO2)NCc1cccs1,6,·,·,-18,3.9,·,3031
CC1CC(C)CN(S(=O)(=O)c2ccc3c(c2)CCN3C(=O)CCC(=O)O)C1 (stereo not drawn),-3,-4,-1,-2,2.6,-1,4389
COc1ccc(CNc2nc(SCc3cc(=O)n4cc(Cl)ccc4n3)nc3ccccc23)cc1,22,3,4,-13,-3.9,3,10528
CCN(CC)S(=O)(=O)c1ccc(Cl)c(NC(=O)COC(=O)C2CCCCC2)c1,2,6,27,-12,2.8,·,3997
O=C(COC(=O)COc1ccccc1)Nc1ccccc1OC(F)F,7,5,0,-16,3.0,0,2869
O=C(O)CCC(=O)N1CCc2c([nH]c3ccccc23)C1C(F)(F)F (stereo not drawn),7,4,4,-22,6.9,-1,3947
CCOC(=O)c1[nH]c2cc3c(cc2c1NC(=O)CN1CCC(C)CC1)OCO3,-9,15,12,-3,0.9,1,4129
Cc1cc(C)nc(SC2CCCCC2O)n1 (stereo not drawn),13,10,5,-37,4.4,-6,5472
N=c1sccn1CC(=O)Nc1cc(S(=O)(=O)N2CCCC2)ccc1Cl,1,-1,-3,-29,2.7,-1,4712
CCn1c(N=Cc2ccccc2O)nc2ccccc21,5,1,-1,·,2.6,·,·
COCCN(C(=O)COC(=O)Cc1cccc(OC)c1)c1c(N)n(CC(C)C)c(=O)[nH]c1=O,4,-1,1,-2,2.8,-3,?
N/C(CSc1ccc(Cl)cc1)=N\NC(=O)c1ccncc1,3,-12,9,-20,-0.7,5,3564
CCC(C)N1CCC2(CC1)N=c1c(c3c4c5c(C)c(O)c3c(O)c1=NC(=O)C(C)=CC=CC(C)C(O)C(C)C(O)C(C)C(OC(C)=O)C(C)C(OC)C=CO[C@@](C)(O5)C4=O)N2 (stereo partly drawn),100*,·,·,·,100*,·,·
O=[N+]([O-])c1cccc(CSc2nnc(Cc3ccccc3)n2-c2ccc(F)cc2)c1,-12,10,5,-39,14,15,2004
Nc1cc(=O)[nH]c(SCc2ccc(Cl)cc2)n1,-12,5,11,-19,-3.3,-8,3796
COc1cc(C2/C(=C(/O)c3ccc(F)cc3)C(=O)C(=O)N2CCCC(=O)O)ccc1O (stereo not drawn),9,9,4,-29,4.6,-17,13241
CCC(=O)Nc1cccc(-c2nc3ccccc3o2)c1,-4,·,·,-24,-0.5,-4,2637
CC(=NNC(N)=S)c1ccncc1,1,·,·,·,3.0,·,·
COc1ccc2c(c1)CC(N1CCN(C)CC1)c1cc(OC)ccc1S2 (stereo not drawn),28,14,14,0,-6.4,-14,4675
O=C(c1ccc([N+](=O)[O-])cc1)N(c1ccccn1)c1ccccn1,6,-2,-1,-11,8.3,-9,4454

# An excerpt of these results, with two lines to a compound.
# Each structure is followed by: ugtP null kill, Mtb hypoxia rep, Mtb hypoxia rep growth, PrP 5UTR inh, RN4220 kill, BJeLR lethal, Autofluor counter
CC(=NNC(N)=S)c1ccncc1
    1, ·, ·, ·, 3.0, ·, ·
N/C(CSc1ccc(Cl)cc1)=N\NC(=O)c1ccncc1
    3, -12, 9, -20, -0.7, 5, 3564

# Remaining list, next part
SMILES,ugtP null kill,Mtb hypoxia rep,Mtb hypoxia rep growth,PrP 5UTR inh,RN4220 kill,BJeLR lethal,Autofluor counter
CCS(=O)(=O)C1=NN2C(=N)/C(=C\c3ccc(SCc4ccco4)o3)C(=O)N=C2S1,-4,·,·,-13,13,9,2849
CN(Cc1ccccc1F)C(=O)CNC(=O)Cc1cccc2ccccc12,9,9,7,-3,2.1,1,5678
Cc1nn(-c2ccccc2)c(C)c1-c1cc(C(=O)NN=Cc2ccc(O)cc2)[nH]n1,-2,-1,3,·,2.9,·,·
COc1cccc(CC(NC(C)=O)C(=O)NC2CCN(c3c4c(nc5ncnn35)CCC4)CC2)c1OC (stereo not drawn),0,3,6,·,2.5,3,·
Cc1ccccc1CSc1nc2n(n1)C(c1cccs1)C1=C(CCCC1=O)N2 (stereo not drawn),18,·,·,-25,-4.3,1,2519
CCCN1CCN(CCCNC(=O)c2ccc3nc(N4CCC(C)CC4)sc3c2)CC1,4,7,4,-62,0.0,6,5947
N#C/C(=C/c1cn(-c2ccccc2)nc1-c1cccc(S(=O)(=O)N2CCOCC2)c1)C(=O)NCc1ccco1,·,·,·,16,·,-31,2611
CCOCCCNC(=O)c1cn(C)c2ccc(S(=O)(=O)N3CCCCC3)cc2c1=O,-2,6,0,-13,-0.5,-2,4215
O=C(CCCCCN1C(=O)c2ccccc2C1=O)Nc1ccc(F)cc1,13,6,8,-17,7.6,0,3081
NC(=O)C1=C[C@@H](c2csc3ccccc23)C[C@@H](OCc2ccc(CO)cc2)O1,·,·,·,-11,·,-7,3125
CCc1c(O)c(-c2ccccc2)c(=O)n(-c2ccccn2)c1-c1ccccc1,1,17,9,-7,1.6,-1,4342
CCOC(=O)c1ccc(NC(=O)C2=C(C)Nc3nc(CCCO)nn3C2c2ccc(OC)cc2)cc1 (stereo not drawn),4,-5,10,-13,3.8,3,3344
CC(C)CN1CCC(=O)N([C@H](COc2ccccc2)c2ccccc2)CC1,·,·,·,-31,·,-15,3465
COc1ccc(C2=NOC(C(=O)Nc3cc(C)on3)C2)cc1 (stereo not drawn),9,3,5,-19,3.6,6,5077
Cc1nc(C)c(CC(=O)N/N=C/c2ccc(O)cc2)c(=O)[nH]1,·,·,·,-12,·,8,2130
Cc1ccc(Cn2nnc3c(=O)[nH]c(C4CCN(C(=O)Cc5cccs5)CC4)nc32)cc1,28,-10,3,-13,-0.5,10,10571
COC(=O)C(NC(=O)c1ccco1)(Nc1ccc(Br)cn1)C(F)(F)F (stereo not drawn),-5,3,5,-7,12,-4,2516
COc1cccc2[nH]c3c(N4CC(C)CC(C)C4)ncnc3c12 (stereo not drawn),-8,10,6,·,5.8,-2,·
CC(=O)c1ccc(NC(=O)[C@@H]2CCCN2C2=NS(=O)(=O)c3ccccc32)cc1,-2,-4,5,-12,-3.8,·,3507
O=C(Cc1ccccc1)NC(=S)Nc1ccc2oc(-c3ccccc3F)nc2c1,71,·,·,-80,-3.4,-10,5724
Cc1ccc(S(=O)(=O)Cn2nnnc2C(C)N2CCN(C(=O)c3ccco3)CC2)cc1 (stereo not drawn),-2,3,6,-12,7.7,-3,12785
O=C(C1CC(=O)N(c2ccccc2)C1)N1CCC(c2nc3ccccc3[nH]2)CC1 (stereo not drawn),-8,1,3,-5,6.8,-3,5549
CCCOP(=O)(c1ccc(N(C)C)cc1)C(O)c1ccc(N(C)C)cc1 (stereo not drawn),0,-4,-3,9,-0.1,-3,3206
Cc1[nH]c(=O)[nH]c(=O)c1CSCC(=O)OCC(=O)Nc1ccccn1,10,4,2,-11,3.0,2,·
CCCCCOC(=O)Nc1nnc(CCCCC)s1,3,5,2,-19,6.9,-11,10950
COCc1nnc(NC(=O)CC(C)C)s1,-1,·,·,-8,-0.4,4,2943
COc1ccc2[nH]c(C(=O)N3CCN(Cc4ccccc4)CC3)cc2c1OC,3,-6,-6,·,-0.6,8,4209
O=C(NCc1ccccc1)C(c1ccco1)N(C(=O)c1cnccn1)c1ccc(F)cc1 (stereo not drawn),·,·,·,0,·,-7,9593
CCC1=NN2C(=N)/C(=C\c3ccc(OCCOc4ccc(NC(C)=O)cc4)cc3)C(=O)N=C2S1,9,5,8,-15,3.7,-10,3515
CCN(C(=O)COC(=O)c1cc(-c2ccc(C)o2)nc2ccccc12)C1CCS(=O)(=O)C1 (stereo not drawn),2,17,14,-9,0.7,-4,4193
COc1cccc2c1nc(C)c1cc(C)oc12,2,·,·,-19,7.9,-4,3137
O=C(O)c1ccccc1C(=O)N1CCN(c2ccccc2)CC1,9,·,·,3,-1.1,-2,4763
COc1cc([N+](=O)[O-])ccc1NC(=O)CSc1n[nH]c(C(C)C)n1,2,-3,6,-24,3.3,4,4035
COc1ccc(C(=O)Nc2oc(-c3ccccc3)c(-c3ccccc3)c2C#N)cc1,-10,-3,14,-20,-8.1,0,3804
Oc1ccc(-c2c(-c3ccsc3)sc3ccccc23)cc1,·,·,·,-6,·,-3,3458
COc1ccc(S(=O)(=O)NC2CCc3ccccc32)cc1OC (stereo not drawn),5,-1,5,-8,-0.2,12,3637
Cc1cc(C)cc(OCC(O)CN2CCN(Cc3ccc4c(c3)OCO4)CC2)c1 (stereo not drawn),-5,-13,-10,-11,-2.5,-3,4539
COc1ccc(C(NC(=O)c2cccnc2)c2cc(Cl)c3cccnc3c2O)cc1OC (stereo not drawn),-1,-5,7,89*,22,12,2910
COc1cccc(C(C)=NNC(=O)c2ccc(N(C)C)cc2)c1,-10,1,10,·,-2.7,·,·
Cn1c(=O)oc2cc(S(=O)(=O)NCCC(=O)N3CCN(c4ccccc4)CC3)ccc21,5,3,5,-7,-0.6,1,5820
CC[C@]12C(=O)N(C)CC(C3C(=O)N(C)C(=O)C31)N2C(=O)c1ccc(Br)cc1 (stereo partly drawn),0,-1,4,·,6.0,·,·
O=C(CN(Cc1ccccc1)S(=O)(=O)c1ccc(F)cc1)NCc1cccnc1,6,6,2,3,-0.7,3,6184
Cc1cc(C)nc(SCc2csc(N)n2)n1,5,·,·,-1,1.0,·,4166
NS(=O)(=O)c1ccc(CCNC(=O)CNC(=O)c2ccc(Br)o2)cc1,7,4,0,-17,0.9,·,3837
Cc1cc(C)c(S(=O)(=O)NCc2ccccn2)c(C)c1,3,12,18,-6,4.1,-3,4011
c1ccc(-c2cnnn2-c2ccccc2)cc1,12,7,19,-25,0.8,4,3946
COC(=O)CSCC(=O)Nc1cc2c(cc1C(C)=O)OCO2,8,1,2,2,22,7,3245
CC(C)N(Cc1nc(-c2ccccc2)no1)C(=O)c1ccc(Cl)cc1,6,-1,3,-18,2.9,5,4289
O=C(Nc1ccccc1)Nc1ccc(Cl)c(S(=O)(=O)N2CCOCC2)c1,-1,14,9,-15,-7.9,2,4348
COc1ccc(S(=O)(=O)N2CCCCC2)cc1NC(=O)CN(Cc1ccco1)Cc1ccco1,8,13,9,-4,6.9,·,4034
Cc1cc(C)n2nc(-c3ccccc3)c(-c3ccccc3)c2n1,44,-7,-1,-12,5.9,0,4064
CCOc1cccc(-c2c(C(=O)NN=C(C)c3ccncc3)nnn2-c2nonc2N)c1,5,17,8,·,3.1,·,·
